# GLA inh pH 4.5: qHTS Assay for Inhibitors of Human alpha-Galactosidase at pH 4.5; 230,000 tested, under 10 active; AID 1467, 2008; Alpha-galactosidase A (Homo sapiens), P06280; purified enzyme, 4-MU-alpha-Gal fluorescence, pH 4.5; activity change, negative = inhibition, % at 105 µM; inconclusive = small, poorly fitted or top-dose-only inhibition, or a rising curve; inactive = flat fitted curve, though single readings scatter; no compound was filed as active;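 note: 0% = full activity with enzyme and -100% = basal without enzyme; dose as in the result columns while the protocol names 77 µM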
# Target sequence (P06280 whole entry, looked up): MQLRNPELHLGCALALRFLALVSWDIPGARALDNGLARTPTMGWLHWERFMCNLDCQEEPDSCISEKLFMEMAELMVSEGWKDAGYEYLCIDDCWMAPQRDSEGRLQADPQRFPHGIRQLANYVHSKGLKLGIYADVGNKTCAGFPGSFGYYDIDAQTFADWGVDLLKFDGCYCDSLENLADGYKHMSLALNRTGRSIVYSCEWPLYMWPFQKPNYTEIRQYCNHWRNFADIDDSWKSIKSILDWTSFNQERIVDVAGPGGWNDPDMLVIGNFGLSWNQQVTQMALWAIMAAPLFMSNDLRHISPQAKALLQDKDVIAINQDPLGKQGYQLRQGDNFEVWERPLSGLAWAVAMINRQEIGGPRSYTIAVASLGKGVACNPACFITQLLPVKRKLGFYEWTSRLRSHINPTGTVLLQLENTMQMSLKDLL
# Rango dissoc inh: qHTS Assay for Inhibitors of RanGTP induced Rango (Ran-regulated importin-beta cargo) - Importin beta complex dissociation; Biochemical FRET Rango-importin beta, RanGTP-induced dissociation; Potency, µM (doses to about 46.1 µM), inactives show at the highest dose activity change, negative = inhibition; actives 0.071% (n = 340,000); AID 540253, 2011; active means falling FRET ratio curve, often poorly fitted, with flat reads before Ran was added; inconclusive means other falling curves, or compound fluorescence or quenching; inactive means flat or rising ratio curve;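 note: potency is the fitted concentration of half-maximal effect; % of control where 0% means no effect; nearly all actives have a fitted effect of over 45% in size; -100% = wells without RanGTP and RCC1; the record marks most hits as doubtful in a second field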
#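 Rango (0.1 uM)–importin beta (0.25 uM) complex; RanGTP-RCC1 trigger; 45 min RT; CFP/YFP FRET read.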
# Rango-impB inh: qHTS Assay for Inhibitors of Rango (Ran-regulated importin-beta cargo) - Importin beta complex formation; Potency, µM (highest dose often 92.2 µM), for inactives: top-dose inhibition of complex formation; actives 0.031% (n = 340,000); Rango CFP/YFP FRET sensor + importin beta, 45 min; Importin subunit beta-1 (Homo sapiens), Q14974; active = rising FRET ratio curve, often small or poorly fitted; inconclusive = mostly compound fluorescence or quenching in the first reads; inactive = flat curves in all reads;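 note: potency is the fitted concentration of half-maximal effect; 0% = DMSO wells and 100% = buffer wells lacking importin beta; nearly all actives have a fitted effect of over 15% in size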
#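 Inhibition scored from the CFP 486 nm/YFP 530 nm FRET ratio 45 min after adding 0.125 microM importin beta to 50 nM Rango biosensor preincubated 5 min with compound (room temperature, PBS with DTT, Tween-20, BSA). No-importin wells as positive control.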
# miR-21 reporter: qHTS Assay for Modulators of miRNAs and/orActivators of miR-21 | HeLa miR-21 FLuc reporter, luciferase, 48 h | Potency, µM (highest dose often 38.3 µM), without a hit: top-dose reporter change, positive = more light | 340,000 tested, under 10 active | AID 2288, 2010; active = well fitted rising curve with a large enough effect; inconclusive = small, poorly fitted or top-dose-only effect; inactive = no such curve, though single readings can be large or run the other way;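 note: % of control where 0% means no effect; miR-21 action dims this reporter so a rising signal means less miR-21 action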
#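 HeLa cells stably expressing CMV-driven firefly luciferase with a downstream miR-21 binding sequence, endogenously expressing miR-21, were treated with titrations (up to about 40uM final) for 48 hours at 37 degree Celsius. Luciferase luminescence was read after lysis.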
# * hit, by the source's call; ? = inconclusive; / = not tested or not shown; & = joins results of further samples. The list is partial; count on the stated rates, not on these rows.
# The first 6 compounds, to show the layout:
Rango dissoc inh,GLA inh pH 4.5,miR-21 reporter,Rango-impB inh,SMILES
-2%,/,5%,-1.3%,Nc1ccc(S(=O)(=O)NC2(C(F)(F)F)NC(=O)N(c3ccc(F)cc3)C2=O)cc1 (configuration not stated)
9%,/,/,-3.1%,COc1ccc(NC(=O)COC(=O)COc2cccc3c2OC(C)(C)C3)cc1
24%,/,/,-4.3%,Cc1nnc(SC(C)C(=O)Nc2ccc3ccccc3c2)n1C (configuration not stated)
3%,7,10%,-1.5%,Cc1c(Cl)cccc1NC(=S)N(Cc1ccco1)C(C)c1ccccn1 (configuration not stated)
13%,6,-49%,-1.3%,COc1ccc(NC(=S)N2N=CCC2c2ccccc2)cc1 (configuration not stated)
-24%,-2,-14%,0.4%,COc1ccc(-c2csc(/C=C/c3ccc4c(c3)OCO4)n2)cc1OC

# The whole of this part, previewed entries included:
Rango dissoc inh,GLA inh pH 4.5,miR-21 reporter,Rango-impB inh,SMILES
-2%,/,5%,-1.3%,Nc1ccc(S(=O)(=O)NC2(C(F)(F)F)NC(=O)N(c3ccc(F)cc3)C2=O)cc1 (configuration not stated)
9%,/,/,-3.1%,COc1ccc(NC(=O)COC(=O)COc2cccc3c2OC(C)(C)C3)cc1
24%,/,/,-4.3%,Cc1nnc(SC(C)C(=O)Nc2ccc3ccccc3c2)n1C (configuration not stated)
3%,7,10%,-1.5%,Cc1c(Cl)cccc1NC(=S)N(Cc1ccco1)C(C)c1ccccn1 (configuration not stated)
13%,6,-49%,-1.3%,COc1ccc(NC(=S)N2N=CCC2c2ccccc2)cc1 (configuration not stated)
-24%,-2,-14%,0.4%,COc1ccc(-c2csc(/C=C/c3ccc4c(c3)OCO4)n2)cc1OC
-5%,/,-1%,3.0%,CCOc1cc(C(=S)N2CCCC2)ccc1OCc1ccccc1
4%,/,/,0.5%,COc1ccc(C(CNC(=O)c2cccc(NS(=O)(=O)c3ccc(C)c(F)c3)c2)N2CCOCC2)cc1 (configuration not stated)
5%,/,-3%,-0.3%,COc1ccc(CC(C)N2CCN(Cc3ccccc3)CC2)cc1OC (configuration not stated)
-5%,0,-48%,6.4%,COc1ccc2cc(C(=O)c3ccccc3)c(=O)oc2c1
1%,/,0%,-11%,COc1ccccc1NC(=O)N[C@@H](Cc1c[nH]c2ccccc12)C(=O)NN
10%,-13,-6%,-2.6%,CCn1c(=O)c(C(=O)NC(C)C)c(O)c2ccccc21
2%,4,-28%,-0.7%,COc1ccc(Nc2ncc(C#N)c(N)n2)c(OC)c1
-6%,/,7%,0.5%,CCn1c(CC(=O)Nc2ccccc2C)nnc1SCC(=O)NC1CCCC1
?,-5,-26%&-32%,-0.1%,Cc1cc(C)n2c(Nc3ccc4c(c3)OCCO4)c(-c3ccccc3)nc2n1
-7%,/,1%,3.4%,COc1ccccc1N1CCN(S(=O)(=O)CCNC(=O)c2ccc(Br)o2)CC1
-23%,/,0%,0.9%,CCCc1cc(=O)oc2c3c(cc(OCC(=O)NCc4ccncc4)c12)OC(C)(C)CC3
14%,/,/,-1.2%,Cc1cc(C(=O)OCC(=O)NCc2ccc(F)cc2)c2ccccc2n1
11%,/,/,-5.4%,CCCCn1c(N)c(N(CC)C(=O)c2cccc(S(=O)(=O)N3CCCc4ccccc43)c2)c(=O)[nH]c1=O
15%,-9,-1%,1.3%,OC(CNCCc1ccc(Cl)cc1)COCc1ccco1 (configuration not stated)
-10%,5,-2%,-4.4%,CCOC(=O)c1sc(NC(=O)CCN2CCN(C)CC2)c(C(=O)OCC)c1C
/,7,-6%,/,Cc1oc(/N=C/c2c(O)ccc3ccccc23)c(C#N)c1C
-16%,2,-36%,0.9%,Cc1ccc(NC(=O)c2sccc2C)cc1S(=O)(=O)N(C)C
2%,10,1%,4.0%,CS(=O)(=O)N(CC(=O)N1CCCC1)c1ccc2c(c1)OCCO2
-17%,5,3%,0.7%,O=C(O)C1[C@H]2C(=O)N(Cc3cccs3)C[C@]23C=C[C@H]1O3 (some centres not stated)
-4%,6,10%,-0.1%,CCOC(=O)Cn1c(=O)oc2cc(S(=O)(=O)N(C)Cc3ccccc3)ccc21
1%,-14,-4%,-4.8%,CCOC(=O)c1cc(C)sc1NC(=S)Nc1ccccc1
-11%,/,2%,3.1%,CC(=O)N1CCCc2cc(S(=O)(=O)N3CCCC(C)C3)ccc21 (configuration not stated)
9%,/,/,-2.5%,COc1cc(OC)cc(C(=O)NCCCCNC(=O)c2cc(OC)cc(OC)c2)c1
?,/,-1%,0.8%,Cc1ccc2[nH]cc(CCNS(=O)(=O)c3ccc(F)cc3)c2c1
13%,9,-11%,-0.2%,CCCNC(=O)CCC(=O)Nc1ncc(-c2ccc(C)cc2)n1C
28%,-6,-11%,0.4%,COCC(=O)Nc1cc(C(=O)NCC(C)C)ccc1Cl
8%,/,-7%,0.7%,CC(=O)Cc1nsc(NC(=O)c2ccc(COc3ccccc3Cl)o2)n1
-4%,/,0%&0%,0.0%,COC(=O)C1=C(C)N(CC2CC2)C(=NCc2cc(OC)c(OC)c(OC)c2)N[C@H]1c1ccccc1
-8%,-5,-1%,-1.7%,CSCCC(NC(=O)c1cc(C)oc1C)C(=O)O (configuration not stated)
-10%,/,-2%,-0.3%,CCc1cc2ccccc2nc1SCC(=O)NC1CCCC1
1%,-3,-22%,0.8%,COc1ccc(OC)c(-c2nnc(NC(=O)C(C)Sc3nncn3C)s2)c1 (configuration not stated)
-9%,/,/,-4.7%,CCc1nnc(NC(=O)c2cc(-c3ccc(C)o3)nc3ccccc23)s1
8%,/,-4%,1.0%,CCc1ccc2oc(C(=O)N3CCN(C)CC3)cc(=O)c2c1
-2%,2,4%,0.5%,O=C(c1cccc(N2C(=O)C3CC=CCC3C2=O)c1)N1CCCCCC1 (configuration not stated)
2%,4,-35%,-3.7%,Cn1c(/C(C#N)=C/c2cccc(O)c2)nc2ccccc21
2%,-5,-23%,?,Cc1ccc(/C=C/C(=O)Nc2nnc(C)s2)o1
30%,-4,0%,-1.2%,CCOC(=O)CCCNC(=O)CN1C(=O)NC(CCc2ccccc2)C1=O (configuration not stated)
2%,5,2%,2.3%,CCOC(=O)N1CCN(CCC(=O)Nc2ccc(Br)cc2)CC1
-9%,11,23%,-0.5%,O=C(NC(Cc1c[nH]c2ccccc12)C(=O)Nc1ccc(F)cc1)c1cccs1 (configuration not stated)
-9%,9,-3%,-1.9%,CCOc1ccc(NC(=O)CCC(=O)NNC(=O)Nc2cccc(Cl)c2)cc1
17%,/,/,0.7%,CCN(CCS(=O)(=O)c1ccc(Cl)cc1)Cc1nc2ccccc2c(=O)[nH]1
10%,/,/,-2.7%,Cc1ccc2nc(SCC(=O)Nc3cccnc3Cl)[nH]c2c1
22%,-10,-20%,0.1%,COc1ccc(-c2noc(C(=O)NCc3ccccc3Cl)n2)cc1OC
2%,/,-2%,0.0%,C[C@H](NC(=O)Cc1ccccc1)C(=O)N1CCC2(CC1)NCCc1[nH]cnc12
20%,-4,3%,4.3%,O=C(Nc1ccccc1N1CCN(C(=O)c2ccccc2)CC1)c1ccc(Cl)cc1
?,/,/,?,CCN(C(=O)CN1CCCCCC1)c1c(N)n(Cc2ccccc2)c(=O)[nH]c1=O
13%,-11,27%,6.1%,O=[N+]([O-])c1cc(F)c2cccnc2c1O
-23%,/,-3%,3.5%,COc1ccc(OC)c(NC(=O)CC2C(=O)NCCN2C(=O)c2ccccc2)c1 (configuration not stated)
10%,/,/,?,CN(CC(=O)NCC1CCCCC1)CC(=O)Nc1ccccc1Br
7%,/,/,4.2%,Cc1cccc(C)c1NC(=O)CN(C)C(=O)[C@H](C)NC(=O)c1ccco1

# (listing goes on)
Rango dissoc inh,GLA inh pH 4.5,miR-21 reporter,Rango-impB inh,SMILES
22%,3,-3%,1.5%,CCOc1cc(NC(=O)c2cccs2)c(OCC)cc1NC(=O)c1ccco1
14%,1,-4%,5.8%,CCc1ccc(C(=O)COC(=O)C(Cc2ccccc2)NC(=O)C2CCC(C)CC2)cc1 (configuration not stated)
-7%,/,-20%,0.6%,CC(=O)c1cccc(NC(=O)c2sc3nc4n(c(=O)c3c2C)CCCC4)c1
18%,6,0%,-3.4%,O=C(CNC(=O)c1ccco1)OCC(=O)c1ccccc1Cl
16%,/,/,-2.8%,O=C(NC1CCSc2ccccc21)c1cc(S(=O)(=O)N2CCOCC2)ccc1Cl (configuration not stated)
3%,-3,-7%,-3.3%,O=C(Cc1cccs1)N1CCN(c2ccccn2)CC1
?,1,-8%,?,O=C(Cn1nnc2ccccc21)c1ccc([N+](=O)[O-])cc1
3%,-4,-8%,-0.8%,Cc1ccc(CCNC(=O)CCc2nc3ccccc3[nH]2)cc1
-12%,/,0%,?,COc1cccc(CNC(=O)C2CCCN(S(=O)(=O)c3c(C)noc3/C=C/N(C)C)C2)c1 (configuration not stated)
-20%,7,3%,-0.9%,CCN(CC)S(=O)(=O)c1ccc(C)c(NS(=O)(=O)c2cc(/C=C/C(=O)O)cc(OC)c2OC)c1
3%,1,-10%,-3.2%,Cn1c(C(=O)NC2CC2)cc2c(=O)n(C)c3ccccc3c21
3%,-2,2%,-1.2%,CCOC(=O)Cc1cnc(NC(=O)NC(C(=O)OCC)(c2ccccc2)C(F)(F)F)s1 (configuration not stated)
8%,-3,-6%,-0.8%,CCOc1ccc(NC(=O)C(C)Sc2nnnn2C)cc1 (configuration not stated)
-2%,4,2%,5.8%,CCOC(=O)c1ccc(NC(=O)CCOc2ccc(OC)cc2)cc1
-9%,-20,8%,0.2%,COCCn1c(C)cc(C(=O)COC(=O)c2ccccc2Br)c1C
?,-8,-1%,?,Cc1[nH]c2ccccc2c1/C=C(\C#N)C(=O)NCc1ccccc1
11%,-2,-5%,3.9%,C=CCc1cccc2cc(C(=O)Nc3cccc(C(=O)O)c3)c(=O)oc12
-1%,/,/,1.4%,COCOc1cc(O)c(C(=O)/C=C/c2ccc(OCOC)c(OCOC)c2)c(OCOC)c1
0%,/,/,-1.0%,CC(C)C[C@@H](C)C(=O)N(Cc1ccccc1)c1ccccc1
15%,/,5%,3.2%,COc1ccccc1N(CC(=O)NC1CCCCC1)C(=O)Cn1nnc(-c2ccc(C)o2)n1
3%,-2,-6%,0.6%,Cc1cc(C)nc(SC(C)C(=O)N/N=C/c2cccs2)n1 (configuration not stated)
-1%,/,/,5.2%,O=C(OCC(=O)N1CCCCCC1)c1ccc(Br)c(S(=O)(=O)N2CCOCC2)c1
18%,/,-2%,3.8%,NS(=O)(=O)c1cccc(NC(=O)c2cccc3c(Br)cccc23)c1
0%,-7,-5%,0.3%,c1ccc(SCCCCNC2CCCC2)cc1
/,10,-2%,/,COc1ccc(-c2nnc3n2C(C)(C)Cc2cc(OC)c(OC)cc2-3)cc1
1%,/,/,-2.5%,COc1cc(/C=C/C(=O)OCC(=O)Nc2cc(S(=O)(=O)N3CCCC3)ccc2Cl)cc(OC)c1OC
-10%,/,1%,0.0%,COc1ccc(CN(C)Cc2cc(=O)oc3cc(C)c(C(C)C)cc23)cc1OC
-1%,-6,26%,-1.2%,Cc1ccc(NC(C)C(=O)N/N=C/c2ccc([N+](=O)[O-])s2)cc1 (configuration not stated)
19%,/,/,0.3%,CC1CN(Cc2nc3c(c(=O)n(C)c(=O)n3C)n2CCc2ccccc2)CC(C)O1 (configuration not stated)
-5%,/,/,3.0%,O=C(CN1C(=O)COc2ccc(Cl)cc21)Nc1nccs1
-11%,-6,-7%,-2.5%,COCCCNC(=O)CCNS(=O)(=O)c1ccc(C)cc1
-8%,-5,-21%,-1.1%,CC(C)COc1ccc(C(=O)OCCN2CCOCC2)c(O)c1
-12%,3,-3%,-1.4%,COc1ccc(S(=O)(=O)N2CCCCCC2)cc1C(=O)OCC(=O)NC(N)=O
2%,15,-9%,0.6%,CCCCNC(=O)Nc1ccccn1
-16%,-5,-9%,-3.3%,O=C(O)c1cccc(Cn2c(Cl)c(/C=N/NC(=O)c3ccc(O)cc3)sc2=O)c1
-8%,/,-9%,-3.3%,CC(C)c1ccc(NC(=O)c2cc([N+](=O)[O-])ccc2N2CCOCC2)cc1

# High-throughput results: PubChem, National Center for Advancing Translational Sciences (NCATS)
